# SmPrx2 inh: inhibitors of Schistosoma mansoni peroxiredoxin 2; S. mansoni Prx2 activity coupled to TGR/GSH (TGR is thioredoxin glutathione reductase), NADPH fluorescence loss, qHTS; some inactives read as strong as hits; Potency, µM; 65,000 tested, 0.07% active; active means full or partial inhibition curve with a strong effect at the top dose; inconclusive means weaker partial or single-point curve; inactive means no accepted curve; also: series up to 57 µM; many of its hits are not listed in these tables
#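 qHTS, coupled TGR/Prx2 format; 15 min compound preincubation at RT; reaction started with H2O2 (2.5 mM aliquot); kinetic NADPH fluorescence decrease, ex 365/em 450 nm.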
# LT uptake inh: inhibitors of anthrax lethal toxin internalization | Cells, anthrax lethal toxin internalization, FRET ratio (460/530) | Potency, µM (highest dose often 40 µM), inactives show at the highest dose activity change, negative = inhibition, actives largely listed as inhibitors | 70,000 tested, 0.67% active; active = well fitted falling ratio curve with the 530 nm signal flat; inconclusive = other ratio curves, or a change in one channel alone; inactive = flat curves in the ratio and both channels; the % refers to the ratio; also: % is scaled to controls: 0 for no effect and ±100 for the full control effect; nearly all actives have a fitted effect of over 50% in size; tested in ME-180 cells; beta-lactamase reporter
# Active calls of the source: *; u = inconclusive; x = no result given; [ ] = dose if it differs, or a comment. Potency is read from the fitted curve at half-maximal effect. A portion of the library; the hit share may differ from the screen's.
# The first 2 compounds as a preview:
Molecule | SmPrx2 inh | LT uptake inh
CC(Sc1nc(N2CCOCC2)c2c(c1C#N)CC(C)(C)OC2)C(=O)Nc1ccccc1 (stereo not given) | >57 | 14%
COc1ccc2[nH]c(=O)c(CN(CCCN3CCOCC3)C(=O)NCc3ccccc3)cc2c1 | >57 | -8%

# Results, from the start:
Molecule | SmPrx2 inh | LT uptake inh
CC(Sc1nc(N2CCOCC2)c2c(c1C#N)CC(C)(C)OC2)C(=O)Nc1ccccc1 (stereo not given) | >57 | 14%
COc1ccc2[nH]c(=O)c(CN(CCCN3CCOCC3)C(=O)NCc3ccccc3)cc2c1 | >57 | -8%
CN(Cc1ccccc1)C(=O)c1ccc2c(c1)OCO2 | >57 | -2%
C=CCOC(=O)C1=C(C)NC(SC)=C(C#N)C1c1ccc(OCC)cc1 (stereo not given) | >57 | x
CCN(CC)C(=O)c1sc(NC(=O)Cc2cccs2)c(C#N)c1C | >57 | u
COc1ccc(-n2nnc3c(=O)n(Cc4cc(C)ccc4C)cnc32)cc1 | >57 | -7%
CCOC(=O)C1(CC)NC(c2ccco2)C2C(=O)N(c3ccc(C)cc3)C(=O)C21 (stereo not given) | >57 | -9%
Cc1nc2ncnn2c(N2CCN(C(c3ccccc3)c3ccccc3)CC2)c1C | >57 | u
CCOC(=O)C1=C(C)NC2=C(C(=O)CC(c3ccc(OC)c(OC)c3)C2)C1c1ccc(C)o1 (stereo not given) | >57 | -11%
COC(=O)CSc1nnc(-c2cccs2)n1-c1ccc(Cl)cc1 | >57 | u
NCCC(=O)N[C@@H](Cc1cnc[nH]1)C(=O)O | >57 | -6%
c1cncc(-c2ccc3ncnc(N4CCNCC4)c3c2)c1 | >57 | u
Cc1cc(NC(=O)CSc2ccc(-c3nc4cc(C)c(C)cc4[nH]3)cn2)no1 | >57 | -5%
COC(=O)c1c(-c2cccnc2)csc1NC(=O)c1cc(C)on1 | >57 | u
CCNc1ncc2nc(C)c(=O)n(CCOC)c2n1 | >57 | -4%
CCOC(=O)C1CCN(Cc2cnc(NC(=O)OC)s2)CC1 | >57 | 5%
O=C(NC1CCCC1)C1CCCN(S(=O)(=O)c2cnc[nH]2)C1 (stereo not given) | >57 | 1%
Cn1c(-c2ccc3ccccc3n2)nc2cnccc21 | >57 | 17%
O=C(/C=C\c1ccccc1)c1ccccc1O | x | u
O=C(c1ccco1)N1CCCSC1=Nc1ccccc1 | >57 | 3%

# New compounds follow:
Molecule | SmPrx2 inh | LT uptake inh
CCOC(=O)N1CCN(S(=O)(=O)c2cc(Cl)ccc2Cl)CC1 | >57 | 16%
O=C(Nc1ncc2c(n1)CC(c1ccco1)CC2=O)c1ccc(Cl)cc1 (stereo not given) | >57 | u
Cn1c(O)c(C=NC2C(=O)C3(C)CCC2C3(C)C)c(=O)n(C)c1=O (stereo not given) | >57 | -2%
COc1ccc(-n2c(=O)c(-c3cccs3)nc3cnc(N4CCOCC4)nc32)cc1 | >57 | u
CC(C)CC(NC(N)=O)C(=O)OCC(=O)NC(=O)NC1CCCC1 (stereo not given) | >57 | u
Cc1sc2nc(SCC(=O)NCc3ccco3)n(C)c(=O)c2c1C | x | -9%
CC[N+](CC)(CC)CC | >57 | -1%
COc1ccc(NC(=O)N2CCCC2C(=O)Nc2ccc(C)cc2)cc1 (stereo not given) | >57 | 2%
COc1ccc(NC(=O)c2c(SC)nsc2SC)cc1 | >57 | -3%
CC(C)[C@H](NC(=O)Nc1ccc2c(c1)OCCO2)C(=O)O | >57 | 9%
CN1C[C@@H](O)[C@@H](O)[C@@H](O)[C@@H]1CO | >57 | 0%
NC(=O)c1ccc(F)cc1 | >57 | -1%
Cc1c(NC(=O)c2nn(C)c(=O)c3ccccc23)c(=O)n(-c2ccccc2)n1C | >57 | 0%
O=C(CCN1C(=O)c2ccncc2C1=O)Nc1ccc2c(c1)OCCO2 | >57 | 3%
O=C(O)C(Cl)(Cl)Br | x | -4%
O=C(NCc1ccco1)c1ccc(S(=O)(=O)c2cccc(S(=O)(=O)N3CCOCC3)c2)cc1 | x | -10%
c1ccc(C2=NCCCN2)cc1 | >57 | 5%
Cc1cc2nc([C@H](C)C(=O)c3ccc(Cl)cc3)c(=O)[nH]c2cc1C | >57 | -3%[8 µM]
Cn1c(=O)c2[nH]c(CN(Cc3ccccc3)Cc3ccccc3)nc2n(C)c1=O | >57 | -1%
O=c1cc(-c2ccccc2)nc(N2CCN(Cc3ccccc3)CC2)[nH]1 | >57 | -9%

# Remaining list, next part.
Molecule | SmPrx2 inh | LT uptake inh
CN1CCc2c(sc3c2c(=O)n(-c2ccccc2)c2nnc(SCc4ccc(F)cc4)n32)C1 | >57 | u
Cc1ccc(C)c(Cn2nnc3c(=O)[nH]c(C4CCCN(C(=O)CC(C)C)C4)nc32)c1 (stereo not given) | >57 | 6%
Nc1ccc2c3c(cccc13)C(=O)NC2=O | >57 | -12%
O=C(OCc1nnc(-c2ccc(Cl)cc2)o1)c1ccc(=O)n(Cc2ccccc2)n1 | >57 | -15%
Cc1ccc(-n2nc3c(c2NC(=O)c2ccc(OC(C)C)cc2)CS(=O)C3)cc1 (stereo not given) | >57 | 0%
CCCNCc1cc(OCC)c(OCC(N)=O)cc1Br | >57 | x
Cc1ccc(CS(=O)(=O)CCC(=O)NCc2ccccn2)cc1 | >57 | -9%
Cc1ccc(OCC(=O)Nc2cccc(O)c2)cc1C | >57 | -3%
COc1ccc(N2CCN(C(c3cccc(OC)c3OC)c3nnnn3C3CCCC3)CC2)cc1 (stereo not given) | >57 | -21%
CC1=C(C(=O)OCCOC(C)C)C(c2cc3c(cc2Br)OCO3)C2=C(CCCC2=O)N1 (stereo not given) | >57 | 5%
COc1ccccc1C1CC(c2ccc(Cl)cc2Cl)Nc2nc(N)nn21 (stereo not given) | >57 | -4%
O=S(=O)(Nc1nc2ccccc2nc1Nc1ccc2c(c1)OCCO2)c1cccs1 | >57 | -14%
Cc1c2oc3c(C)ccc(C(=O)N[C@@H]4C(=O)N[C@H](C(C)C)C(=O)N5CCC[C@H]5C(=O)N(C)CC(=O)N(C)[C@@H](C(C)C)C(=O)O[C@@H]4C)c3nc-2c(C(=O)N[C@@H]2C(=O)N[C@H](C(C)C)C(=O)N3CCC[C@H]3C(=O)N(C)CC(=O)N(C)[C@@H](C(C)C)C(=O)O[C@@H]2C)c(N)c1=O | x | -4%
CCOc1ccc(C(=O)Nc2ccc(N3CCCC3)cc2)cc1 | >57 | 6%
O=C(CC1N=C2c3ccccc3N=C(SCc3ccc(F)cc3)N2C1=O)NCc1ccco1 (stereo not given) | >57 | 13%
O=C1CCCc2c1nc(-c1ccccc1)n2O | >57 | u
O=c1oc2ccccc2n1CCn1c2ccccc2c2nc3ccccc3nc21 | >57 | 9%
CC(C)CCNC(=O)NC(=O)CSc1nnc(-c2ccccc2Br)o1 | >57 | 1%
O=C(Nc1ccc(Nc2ccccc2)cc1)c1ccco1 | >57 | 10%
COc1ccc(-c2nnc3ccc(SCC(N)=O)nn23)cc1OC | >57 | -9%

# (listing goes on)
Molecule | SmPrx2 inh | LT uptake inh
Cc1cc(Cl)ccc1OCC(=O)N1CCCCC1 | >57 | -7%
C=CC1=C(C(=O)O)N2C(=O)[C@@H](NC(=O)/C(=N\OCC(=O)O)c3csc(N)n3)[C@@H]2SC1 | >57 | 3%[3.58 µM]
CC(C)(C)OC(=O)N1CCC(C(=O)O)CC1 | >57 | 15%
CN(C)[C@H]1C(=O)C(C(N)=O)=C(O)[C@]2(O)C(=O)C3=C(O)c4c(O)cccc4[C@@](C)(O)[C@H]3C[C@@H]12 | >57 | -11%[3.58 µM]
Cc1ccc2[nH]c3c(=O)n(CCCN4CCN(C)CC4)cnc3c2c1 | >57 | -19%
C=CCN1CC[C@@]23CCCC[C@@H]2[C@@H]1Cc1ccc(O)cc13 | >57 | u
Cc1nc(SCC(=O)CC(=O)OC(C)C)c(C#N)c(C)c1C | >57 | -26%
COc1cc2c(cc1O)C(SC)=NC(C)(C)C2 | >57 | u
COc1ccccc1CNc1ncnc2ccc(-c3cccnc3)cc12 | >57 | u
c1ccc(CSCCc2ccncc2)cc1 | >57 | 2%[8 µM]
CC(=O)Nc1ccc(S(=O)(=O)N(C2=NCC(C)S2)c2ccccc2)cc1 (stereo not given) | >57 | -22%
CCOc1ccc(NC(=O)CN2C(=O)C3CCCN3C2=O)cc1 (stereo not given) | >57 | -5%
COC(=O)c1ccc(NC(=O)Nc2ccc(F)cc2)cc1 | >57 | -2%
CN(C)CCC(=O)[C@@]1(O)CC[C@H]2[C@H]3CC=C4C[C@@H](O)CC[C@]4(C)[C@H]3CC[C@]21C | >57 | -14%[8 µM]
CCCCC1CC(CSc2ncn[nH]2)OC1=O (stereo not given) | x | 1%
CCc1c(C)nc2ncnn2c1N1CCC(C(=O)N2CCN(c3ccc(F)cc3)CC2)CC1 | >57 | -2%
CCOc1ccc(NC(=O)CN2CCN(CC(=O)Nc3ccc4c(c3)OCCO4)CC2)cc1 | >57 | 11%
O=C(c1cc(C(F)(F)F)cc(C(F)(F)F)c1)N1CCC2(CC1)CN(Cc1ccccc1)C2 | >57 | 21%
CCOC(=O)N1CCN(C(=O)c2ccc3c(=O)n(Cc4ccccc4)c(=S)[nH]c3c2)CC1 | >57 | 0%
CCc1c(C)nc2c(C#N)c(C)[nH]n2c1=O | >57 | 3%

# Following part
SMILES | SmPrx2 inh | LT uptake inh
CN(C)/C=N/c1c(C#N)cnn1-c1ccccc1 | >57 | -1%
Cc1cc2nc(-c3cccc(NC(=O)c4ccc(Br)o4)c3C)oc2cc1C | >57 | -15%
CC1CN(c2nc3c(c(=O)n(C)c(=O)n3C)n2Cc2c(Cl)cccc2Cl)CC(C)O1 (stereo not given) | >57 | -10%
Cc1ccsc1/C=N/n1cnc2sc(C)c(C)c2c1=O | >57 | -5%
O=C(Nc1nccs1)C1CCCN1S(=O)(=O)c1ccc(Cl)cc1 (stereo not given) | >57 | -6%
Cc1ccc(C(CCN)c2ccco2)cc1 (stereo not given) | >57 | x
Cc1nccc2[nH]c(=O)c(C(=O)NCCCN(C)C3CCCCC3)cc12 | >57 | -20%
CCS(=O)(=O)N1CCC(C(=O)N2CCN(c3ccccc3)CC2)CC1 | >57 | 4%
CCn1c(SCC(=O)c2ccc(O)c(O)c2)nnc1-c1ccccc1OC | >57 | 14%
CC(C)CCn1c(SCC#N)nc2c(sc3ccccc32)c1=O | >57 | 9%
C=CCOC(=O)C1CC=CCC1C(=O)Oc1ccc(F)cc1F (stereo not given) | x | -8%
CC1CN(C(=O)c2cnn3c(C(F)F)cc(-c4ccccc4)nc23)CC(C)O1 (stereo not given) | >57 | -4%
O=C(Nc1ccc2c(c1)nc1n2CCOC1)C1CCCCC1 | x | u
CCN(CC)S(=O)(=O)c1ccc(NC(=O)c2ccccn2)cc1 | >57 | 13%
CCOC(=O)N1CCC(=C(C#N)C(=O)Nc2cc(OC)ccc2OC)CC1 | >57 | 4%

# Quoted from above, 4 compounds:
SMILES | SmPrx2 inh | LT uptake inh
CC1CN(C(=O)c2cnn3c(C(F)F)cc(-c4ccccc4)nc23)CC(C)O1 (stereo not given) | >57 | -4%
O=C(Nc1ccc2c(c1)nc1n2CCOC1)C1CCCCC1 | x | u
CCN(CC)S(=O)(=O)c1ccc(NC(=O)c2ccccn2)cc1 | >57 | 13%
CCOC(=O)N1CCC(=C(C#N)C(=O)Nc2cc(OC)ccc2OC)CC1 | >57 | 4%

# (list continues)
SMILES | SmPrx2 inh | LT uptake inh
Cc1ccc2nc(NC(=O)COC(=O)c3ccco3)sc2c1 | >57 | 0%
O=C(NC1CCCCC1)C1CCN(S(=O)(=O)c2cccc3cccnc23)CC1 | >57 | -6%
CCCCCCN(C(=O)CCCCCN1C(=O)NC(c2ccc(-c3ccccc3)cc2)C(C(=O)OCc2ccccc2)=C1C)C(C(=O)NCCCC)c1ccccn1 (stereo not given) | x | 14%
Cc1cc(SCc2sc(-c3ccc(C(F)(F)F)c(F)c3)nc2C)ccc1OCC(=O)O | x | -26%
CC1=NN(c2ccccc2)C(=O)[C@@H]1N=Nc1ccc([As](=O)(O)O)c(O)c1 | u | -13%[8 µM]
CN(CC(=O)Nn1cnnc1)S(=O)(=O)c1cc(Cl)ccc1Cl | >57 | -18%
CCCC(NC(=O)c1ccccc1)c1nc2ccccc2n1Cc1ccc(C(=O)OC)o1 (stereo not given) | >57 | 4%
Cc1ccc(NC2c3ncccc3C(=O)N2Cc2ccc(F)cc2)cc1 (stereo not given) | >57 | x
N#CC(C#N)=Cc1cc(O)c(O)c(O)c1 | >57 | -2%
CCOC(=O)OCC1OC(c2ccccc2)C=CC1OC(=O)OCC (stereo not given) | x | -2%[8 µM]
CCCCOC(=O)C1=C(N)OC2=C(C(=O)CC(C)(C)C2)[C@]12C(=O)N(C)c1ccccc12 | >57 | 4%
CC(=O)c1cccc(NC(=O)CN(c2ccc(C)cc2)S(=O)(=O)c2cccc3nonc23)c1 | >57 | -11%
O=c1c2ccccc2nc(SCc2cn3ccsc3n2)n1-c1ccccc1F | >57 | 1%
Cn1c(=O)[nH]c(=O)c2c1nc(OC(=O)c1ccccc1)n2CC(O)COc1ccc(F)cc1 (stereo not given) | >57 | -9%
CO/N=C(\C(=O)N[C@@H]1C(=O)N2C(C(=O)O)=C(COC(N)=O)CS[C@@H]12)c1ccco1 | >57 | u

# Next part
SMILES | SmPrx2 inh | LT uptake inh
COc1cccc(-c2csc(N3CCN(Cc4ccccc4)CC3)n2)c1 | >57 | -27%
Cc1noc(C)c1-c1cc(NC2CCNCC2)ncn1 | >57 | 1%
O=C(OC(C(=O)NCC1CCCO1)c1ccccc1F)c1ccco1 (stereo not given) | >57 | -6%
O=C(O)CCN(CCC(=O)O)S(=O)(=O)c1ccccc1 | >57 | -1%
